Bioassay records deposited in PubChem BioAssay by National Center for Advancing Translational Sciences (NCATS).
GLA inh pH 4.5 = alpha-galactosidase A (human) inhibition, pH 4.5; purified enzyme, 4-MU-alpha-Gal fluorescence, pH 4.5; P06280; 230,000 tested, under 10 active; activity change, negative = inhibition, % at 105 µM; inconclusive = small, poorly fitted or top-dose-only inhibition, or a rising curve; inactive = flat fitted curve, though single readings scatter; no compound was filed as active;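 note: 0% = full activity with enzyme and -100% = basal without enzyme; dose as in the result columns while the protocol names 77 µM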
Target sequence (P06280 whole entry, looked up): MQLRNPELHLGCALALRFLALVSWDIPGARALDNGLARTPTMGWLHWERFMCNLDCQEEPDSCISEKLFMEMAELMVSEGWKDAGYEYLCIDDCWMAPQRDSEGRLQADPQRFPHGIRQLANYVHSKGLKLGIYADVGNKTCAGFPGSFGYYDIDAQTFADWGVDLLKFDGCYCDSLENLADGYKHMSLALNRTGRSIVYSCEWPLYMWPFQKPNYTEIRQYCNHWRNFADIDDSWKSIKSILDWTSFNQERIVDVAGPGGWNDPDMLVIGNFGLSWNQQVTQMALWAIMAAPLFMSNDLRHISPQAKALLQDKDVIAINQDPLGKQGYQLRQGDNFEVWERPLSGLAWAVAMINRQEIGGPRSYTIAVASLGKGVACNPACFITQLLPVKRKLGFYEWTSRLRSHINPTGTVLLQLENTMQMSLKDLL
Rango-impB inh = prevents formation of the Rango-importin beta complex; Q14974; Rango CFP/YFP FRET sensor + importin beta, 45 min; Potency, µM (series often up to 92.2 µM), without a hit: at the top dose inhibition of complex formation; hit rate 0.031% among 340,000; AID 540263; active = rising FRET ratio curve, often small or poorly fitted; inconclusive = mostly compound fluorescence or quenching in the first reads; inactive = flat curves in all reads;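 note: potency is the fitted concentration of half-maximal effect; 0% = DMSO wells and 100% = buffer wells lacking importin beta; nearly all actives have a fitted effect of over 15% in size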
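Inhibition scored from the CFP 486 nm/YFP 530 nm FRET ratio 45 min after adding 0.125 microM importin beta to 50 nM Rango biosensor preincubated 5 min with compound (room temperature, PBS with DTT, Tween-20, BSA). No-importin wells as positive control.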
miR-21 reporter = raises the signal of a miR-21 reporter; AID 2288; HeLa miR-21 FLuc reporter, luciferase, 48 h; Potency, µM (series often up to 38.3 µM), inactives show at the highest dose reporter change, positive = more light; 340,000 tested, under 10 active; active = well fitted rising curve with a large enough effect; inconclusive = small, poorly fitted or top-dose-only effect; inactive = no such curve, though single readings can be large or run the other way;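 note: % of control where 0% means no effect; miR-21 action dims this reporter so a rising signal means less miR-21 action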
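Using DMEM plus 10% FBS, HeLa miR-21-FLuc cells are incubated with test compounds (final up to about 40uM) for 48 hours; firefly luciferase signal is then imaged following reagent-mediated lysis.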
Rango dissoc inh = inhibition of RanGTP-driven Rango-importin beta dissociation; O95149+P62826; Biochemical FRET Rango-importin beta, RanGTP-induced dissociation; Potency, µM (titrated, usually from 46.1 µM), for inactives: at the top dose activity change, negative = inhibition; hit rate 0.071% among 340,000; active means falling FRET ratio curve, often poorly fitted, with flat reads before Ran was added; inconclusive means other falling curves, or compound fluorescence or quenching; inactive means flat or rising ratio curve;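 note: potency is the fitted concentration of half-maximal effect; % of control where 0% means no effect; nearly all actives have a fitted effect of over 45% in size; -100% = wells without RanGTP and RCC1; the record marks most hits as doubtful in a second field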
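Recombinant Rango FRET biosensor (EYFP–snurportin 1 IBB–cerulean CFP10) at 0.1 uM premixed with 0.25 uM importin beta in PBS, 1 mM DTT, 0.02% Tween-20, 0.1% BSA. Compound added 5 min; RanGTP-RCC1 (0.6 uM Ran, 2 mM GTP, 0.2 uM RCC1) then triggers release, read at 45 min.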
Active calls of the source: *; u = inconclusive; x = not tested or not shown. These rows are one share of the data; count on the stated rates, not on these rows.

The line under a structure holds: Rango dissoc inh	GLA inh pH 4.5	miR-21 reporter	Rango-impB inh
> CC(=O)Oc1ccc([C@@H]2COc3c(ccc4c3C=CC(C)(C)O4)C2)c(OC(C)=O)c1
 : 1%	x	x	4.5%
> CCOC(=O)c1cnc(SC2CC(=O)N(c3ccc(OC)c(OC)c3)C2=O)nc1N (stereo unspecified)
 : -7%	-17	-4%	5.9%
> CC(C)(C)c1ccc(OCC(=O)NNC(=O)C2CCCO2)cc1 (stereo unspecified)
 : -2%	-18	-3%	-0.9%
> CN1CCCN(Cc2ccc(Cl)cc2Cl)CC1
 : 1%	3	1%	0.1%
> CCOC(=O)c1nnn(CC(=O)N2N=C(c3ccc(Cl)cc3)CC2c2ccccc2)c1C(=O)OCC (stereo unspecified)
 : 4%	-16	-5%	-0.9%
> COc1ccc(CN2CCC(CO)(Cc3cccc(C(F)(F)F)c3)CC2)cc1Cn1cccn1
 : 0%	-9	18%	-1.0%
> CCc1ccc(-n2c(=S)sc3c(=O)n(-c4ccccc4)c(SCC(=O)O)nc32)cc1
 : 23%	x	0%	u
> O=C1OC(CN(Cc2ccccc2)Cc2ccccc2)CN1N=Cc1ccc([N+](=O)[O-])o1 (stereo unspecified)
 : 3%	x	x	2.6%
> O=C1Nc2ccc(S(=O)(=O)N3CCCC3C(=O)O)c3cccc1c23 (stereo unspecified)
 : u	-1	-4%	u
> CN(C)c1nc(Oc2ccc(=O)n(C)n2)nc(N2CCOCC2)n1
 : 6%	0	-9%	-2.0%
> CCC(Sc1nc(=O)cc(N)n1CCc1ccccc1)C(=O)Nc1cc(C)on1 (stereo unspecified)
 : 24%	7	1%	0.5%
> C=CCC(=O)OCC(=O)Nc1ccc(Cl)cn1
 : 1%	-5	15%	0.8%
> O=c1oc(-c2ccc([N+](=O)[O-])cc2)nc2ccccc12
 : -10%	6	-21%	-0.1%
> Cc1ccc(C)c(NC(=S)N(C)CCc2ccccn2)c1
 : -5%	-2	-5%	-0.2%
> COc1cc(NC(=O)C2CCCN2S(=O)(=O)c2ccc3c(c2)CCC(=O)N3)cc(OC)c1 (stereo unspecified)
 : -16%	0	-8%	2.3%
> CC[C@]12c3[nH]c4ccccc4c3CCN1C(=O)C(CC(=O)NCCCn1ccnc1)C[C@@H]2C(=O)N1CCN(C(=O)c2ccco2)CC1 (stereo partly specified)
 : 0%	x	x	0.6%
> O=C(Cc1ccccc1)Nn1c(-c2ccccc2F)nc2ccccc2c1=O
 : -3%	-1	-4%	0.5%
> CCOc1ccc(C(=O)CCC(=O)NNC(=O)c2ccncc2)cc1
 : -8%	x	x	-3.7%
> C[C@H](CO)N1C[C@H](C)[C@@H](CN(C)C(=O)Nc2ccccc2)Oc2c(NS(=O)(=O)c3ccccc3)cccc2C1=O
 : 0%	x	x	0.6%
> Cc1ccc(C2C3=C(CCCC3=O)Nc3c2c(C)nn3-c2ccccn2)o1 (stereo unspecified)
 : x	0	5%	x
> Cc1ccccc1-c1cc(C(=O)N/N=C/c2cccnc2)c2ccccc2n1
 : -3%	x	0%	-3.4%
> CCOc1ccc(C2C(C(=O)c3ccco3)=C(O)C(=O)N2CCN2CCOCC2)cc1OCC (stereo unspecified)
 : 0%	x	-2%	0.2%
> Nc1cnc(-c2ccccc2)nc1Cl
 : -9%	-2	-32%	-0.5%
> CCOC(=O)C1CCN(c2ncnc3c2oc2ccccc23)CC1
 : 2%	-3	-17%	-4.4%
> CCOC(=O)c1ccc(NC(=O)CSc2nnc(COc3ccccc3OC)n2C)cc1
 : 26%	2	-4%	-0.2%
> Cc1ccc(-c2csc3ncn(CC(=O)OC(C)C)c(=O)c23)cc1
 : 2%	x	5%	2.6%
> COc1ccccc1N1CC=C(c2cccc([N+](=O)[O-])c2)NC1=O
 : -25%	4	-8%	0.2%
> CC(=O)NCCC(=O)Nc1cc(S(=O)(=O)Nc2ccc(Cl)cc2)ccc1N1CCCC1
 : -18%	x	5%	0.4%
> CCOC(=O)c1c(NC(=O)c2ccc(Cl)cc2)csc1C
 : 4%	7	-2%	4.5%
> COCCCN1C(=O)/C(=C\c2cccs2)C(C(=O)OC)=C1C
 : -6%	x	-2%	-0.3%
> O=C(CSc1nc2ccccc2nc1N1CCOCC1)Nc1ccccc1F
 : -5%	x	-16%	0.7%
> COC(=O)C1C2CC3c4[nH]c5cc(OC)ccc5c4CCN3CC2CC(O)C1OC (stereo unspecified)
 : u	x	x	u
> COc1ccc(N2C(=O)CC(N3CCN(c4nc5ccccc5s4)CC3)C2=O)cc1 (stereo unspecified)
 : -19%	2	-15%	-2.3%
> NC(=O)c1ccc(Nc2nnc(-c3ccc(O)cc3)c3ccccc23)cc1
 : 8%	-13	-2%	5.6%
> CN(C)S(=O)(=O)c1ccc(NCC2COc3ccccc3O2)c([N+](=O)[O-])c1 (stereo unspecified)
 : 0%	-2	-31%	-1.7%
> CCOC(=O)c1cnc2c(c(C)nn2C)c1Oc1ccc(OC)cc1
 : 0%	-2	-3%	-1.3%
> COc1ccc(CNS(=O)(=O)c2cc3c4c(c2)C(C)C(=O)N4CCC3)cc1 (stereo unspecified)
 : -4%	x	5%	-1.1%
> Cc1nnc(SCC(=O)NCc2ccccc2)s1
 : -2%	-2	-4%	-1.9%
> O=C(CSc1nc2ccccc2o1)N/N=C/c1ccccc1
 : 5%	6	-39%	-3.2%
> O=C(Nc1ccc(C(=O)N2CCCC2)cc1)c1ccccc1
 : 1%	x	x	0.3%
> O=C1C2C(c3ccccc3)CC=CC2[C@H](c2ccc3ccccc3c2)N1Cc1ccccc1 (stereo partly specified)
 : -4%	0	25%	u
> O=C(CC(Nc1ccc(F)cc1)C(=O)O)c1ccccc1 (stereo unspecified)
 : 6%	-3	-57%	-3.1%
> COc1ccc(OCC(=O)Nc2cc(NC(=O)c3ccco3)ccc2OC)cc1
 : 10%	x	0%	4.1%
> CCS(=O)(=O)n1nc(NCc2cccc(OC)c2)nc1NCc1cccc(OC)c1
 : 3%	-9	-1%	-1.5%
> Cc1c(C(=O)C(=O)N2CCN(Cc3ccc4c(c3)OCO4)CC2)c2ccccc2n1C
 : 10%	x	-15%	-1.5%
> C/C(CC(=O)NCc1ccccc1)=N\NC(=O)c1cnccn1
 : -1%	1	-7%	0.9%
> Cc1nc2ccc(Br)cn2c1C(=O)N/N=C\c1ccc(C(C)C)cc1
 : 28%	x	12%	-1.6%
> CCOC(=O)N1CCN(c2cc(NCCO)c([N+](=O)[O-])c3nonc23)CC1
 : 9%	-6	1%	-5.3%
> CC(O)CNCc1ccccc1C(F)(F)F (stereo unspecified)
 : -3%	3	0%	2.5%
> Cc1cccc([C@@H]2[C@@H]3C(=O)N(Cc4ccccc4)C(=O)[C@@H]3[C@]3(Cc4ccc(Cl)cc4)C(=O)N(c4ccccc4)C(=O)N23)c1
 : -7%	x	0%	0.4%
> CC(C)(C)c1nnc2sc(SCC(=O)c3ccc4c(c3)OCCO4)nn2c1=O
 : -1%	4	-10%	4.9%
> COC(=O)C1=C(C)N=C2SCCC(=O)N2C1c1ccc(OC(=O)c2ccco2)cc1 (stereo unspecified)
 : 33%	-4	-7%	5.8%
> COc1ccc(-c2ccccc2)cc1NCc1ccc(OC)c(OC)c1
 : 21%	-1	-9%	0.8%
> COC(=O)c1ccccc1C(=O)N1CCCC(CNC(=O)c2ccc(F)cc2)C1 (stereo unspecified)
 : -8%	x	-1%	3.1%
> CCCc1nnc(NC(=O)CN2C(=O)c3ccccc3S2(=O)=O)s1
 : 5%	0	-7%	7.5%
> CC1CCN(Cc2c(C(=O)N/N=C/c3ccc(C(C)C)cc3)nnn2-c2nonc2N)CC1
 : 3%	x	0%	3.3%
> CCC(C)n1c(SCC(=O)Nc2ccc3[nH]c(=O)[nH]c3c2)nc2ccccc2c1=O (stereo unspecified)
 : -3%	x	x	3.9%
> C=CCNC(=S)Nc1cc(Cl)ccc1OC
 : 23%	7	1%	-1.4%
> O=CN1CCN(C=O)C(O)C1O (stereo unspecified)
 : 1%	x	x	1.5%
> Cn1nnc2sc3c(c2c1=O)CCCC3
 : -2%	-2	-7%	-3.6%

Later entries.
The line under a structure holds: Rango dissoc inh	GLA inh pH 4.5	miR-21 reporter	Rango-impB inh
> CC(=O)c1c(C)[nH]c(C(=O)CSc2nnc(-c3ccc(Cl)cc3)n2CC2CCCO2)c1C (stereo unspecified)
 : -11%	-3	12%	-0.9%
> CC1=CC2=NC(=O)CC(C)(C(=O)N(CC(=O)NC(C)(C)C)C3CCCC3)N2C=C1 (stereo unspecified)
 : -3%	-3	1%	-2.3%
> CCOCCCNC(=O)C(NC(=O)c1ccc2c(c1)OCO2)c1ccccc1 (stereo unspecified)
 : -3%	6	4%	-4.8%
> Nc1nonc1C(=O)NCCNC(=O)c1ccc(Cl)cc1
 : 32%	x	0%	u
> O=P(c1ccccc1)(c1ccccc1)c1cc(S(=O)(=O)O)ccc1O
 : -10%	x	-3%	2.4%
> Cc1ccc(S(=O)(=O)Oc2ccc(/C=C(/NC(=O)c3ccccc3)C(=O)NC(C)C(=O)O)cc2)cc1 (stereo unspecified)
 : 12%	2	-4%	-5.3%
> Cc1nc(NC(=O)CSc2nnnn2Cc2ccccc2)sc1C
 : -2%	1	-17%	-3.6%
> O=C(Cn1c(C(F)(F)F)nc2ccccc21)N=Nc1c(O)[nH]c2ccc(Br)cc12
 : -12%	8	0%	0.4%
> COCCNC(=O)c1cc(OC)c(OC)cc1[N+](=O)[O-]
 : 5%	9	-2%	1.2%
> COc1ccc(OC)c(S(=O)(=O)CC(=O)c2cc3ccc(OC)cc3oc2=O)c1
 : u	x	-7%	0.7%
> Cc1cc(C)cc(C(=O)NCC(=O)NNC(=O)CSc2ccccc2F)c1
 : 14%	x	x	-0.6%
> CCc1nc(SCC(=O)NCc2ccc(F)cc2)c2c(=O)n(C)c(=O)n(C)c2n1
 : -4%	-11	-3%	2.0%
> O=C(CSc1nncs1)Nc1ccc(N2CCCCC2)cc1
 : 3%	x	x	0.9%
> O=C(CCCN1C(=O)/C(=C\c2ccccc2)SC1=S)N1CCOCC1
 : -7%	x	x	-4.3%
> O=c1[nH]nc(Cc2ncc(C(F)(F)F)cc2Cl)c2ccccc12
 : 32%	x	0%	0.1%
> COc1ccc(OC)c(N(CC(=O)NC2CCCC2)S(=O)(=O)c2ccc(OC)c(OC)c2)c1
 : -11%	x	-1%	0.1%
> Cc1cc(/C=N/n2cnnc2)c(C)n1-c1ccc(C(=O)O)cc1
 : 2%	2	0%	-0.9%
> COc1ccc(C(=O)NC(=S)N(Cc2ccccc2)Cc2ccccc2)cc1
 : -12%	-13	-9%	2.2%
> O=C(CN1CCOCC1)N(c1ccccc1)c1ccc2ccccc2c1
 : 0%	3	-8%	-0.9%
> CCOc1ccc(NC(=O)CCSc2nnc(C)s2)cc1
 : 7%	1	-12%	u
> O=C(Cc1ccc(-n2cnnn2)cc1)NC12CC3CC(CC(C3)C1)C2
 : 2%	6	-12%	2.7%
> Cc1ccccc1C(=O)Nn1c(C)ccc1C
 : x	-2	1%	x
> COc1ccc(C2(O)C(=O)Nc3ccccc32)cc1 (stereo unspecified)
 : 16%	x	-6%	-3.7%
